# RanGTP-Imp inh = inhibitors of RanGTP-importin-beta interaction, primary screen, biochemical, FRET, CFP-Ran, YFP-importin-beta, homogeneous; Ran GTPase (GTP-bound) - importin-beta complex; cell-free CFP-Ran/YFP-importin-beta FRET ratio; inhibition, % (concentration not given with the values); 300,000 tested, 1.1% active;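 active = most replicates above 15%; inconclusive = exactly half above 15%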;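 also: 0% = DMSO wells and 100% = Ran loaded with GDP instead of GTP; wells of about 40 µL received 100 nL stock; the first replicate is given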
# Calb FLC = C. albicans growth inhibition with fluconazole, primary screen, CaCi-2 strain, Alamar Blue fluorescence; 300,000 tested, 0.57% active; C. albicans CaCi-2 (fluconazole-resistant clinical isolate) + fluconazole, 48 h; growth inhibition, % (test concentration not listed);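 active = most replicates above 75%; inconclusive = exactly half above 75%; inactive = most below 75%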;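 also: all wells also contain fluconazole at 8 µg/ml as a sub-toxic cotreatment; 0% = median of DMSO wells and 100% = median of geldanamycin control wells; wells of about 8 µL received 7.5 nL stock; the first replicate is given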
# HNF4A DNA FP = change in binding of human HNF4A to DNA, primary screen, biochemical, fluorescence polarization, FITC-DNA. activity change, % at 10 µM. 1 h. 360,000 tested, 0.3% active. Hepatocyte nuclear factor 4-alpha (Homo sapiens), P41235; in the data active = activity change above about 30%, passing the limit was not always enough;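 also: controls were the assay level and a saturating level of protein; the project sought stronger binding though the title names inhibitors; some compounds called inactive have numbers as strong as hits; positive values seem to mean higher polarization but the record does not say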
# Target sequence (P41235 whole entry, looked up): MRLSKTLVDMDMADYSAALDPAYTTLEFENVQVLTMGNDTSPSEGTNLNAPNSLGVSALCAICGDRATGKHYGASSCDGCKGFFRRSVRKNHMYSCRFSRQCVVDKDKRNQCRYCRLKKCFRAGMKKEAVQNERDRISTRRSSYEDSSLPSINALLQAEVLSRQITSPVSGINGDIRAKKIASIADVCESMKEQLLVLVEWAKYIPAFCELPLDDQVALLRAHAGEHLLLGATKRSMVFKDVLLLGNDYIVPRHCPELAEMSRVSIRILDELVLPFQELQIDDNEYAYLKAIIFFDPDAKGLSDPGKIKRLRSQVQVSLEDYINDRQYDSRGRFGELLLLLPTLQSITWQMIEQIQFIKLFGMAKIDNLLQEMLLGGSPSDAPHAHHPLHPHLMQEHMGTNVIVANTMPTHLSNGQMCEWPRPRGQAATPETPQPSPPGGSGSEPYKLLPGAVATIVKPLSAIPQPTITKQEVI
# Beta2AR agonist = beta2AR agonists driving receptor internalization, primary screen, cell-based, FAP fluorogen, flow cytometry | Beta-2 adrenergic receptor (Homo sapiens), P07550 | Am2.2-beta2AR cells; reference of the scale not given here | response, % (test concentration not listed) | 340,000 tested, 0.43% active;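 active = response above a set limit, near 3 SD of response in nonfluorescent compounds, cut at about 42% in these data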;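 also: stock transfer was 100 nL into about 11 µL; a reference agonist was the positive control; negative values mostly stem from fluorescent compounds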
# Target sequence (P07550 whole entry, looked up): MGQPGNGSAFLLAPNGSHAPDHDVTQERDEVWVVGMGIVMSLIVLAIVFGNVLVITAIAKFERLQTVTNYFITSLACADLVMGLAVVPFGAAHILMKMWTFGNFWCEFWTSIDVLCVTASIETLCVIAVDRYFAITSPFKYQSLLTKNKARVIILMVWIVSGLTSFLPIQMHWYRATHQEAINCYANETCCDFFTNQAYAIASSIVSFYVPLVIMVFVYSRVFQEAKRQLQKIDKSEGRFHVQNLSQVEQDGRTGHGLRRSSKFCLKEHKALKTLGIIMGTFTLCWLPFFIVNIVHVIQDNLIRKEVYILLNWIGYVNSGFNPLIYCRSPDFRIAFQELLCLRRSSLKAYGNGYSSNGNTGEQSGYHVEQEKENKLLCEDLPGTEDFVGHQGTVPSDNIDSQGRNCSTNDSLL
# Vif A3G = inhibitors of Vif binding to APOBEC3G peptide, primary screen, biochemical, TR-FRET, GST-Vif 1-94, biotin-A3G peptide, dose response retest (AID 1117319); Virion infectivity factor (Human immunodeficiency virus type 1 group M subtype B (isolate …; 260,000 tested, 0.57% active; TR-FRET GST-Vif / biotin-A3G peptide binding; higher % means a stronger effect; test concentration not given here; strong numbers were not always called active; inhibition, %, or IC50 in µM where a hit was titrated;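 active = above the screen mean plus three standard deviations and confirmed in dose response; inconclusive = results disagree or hit not tested in dose response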;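 also: Vif residues 1-94 fused to GST binding biotinylated APOBEC3G peptide 110-148; 0% = full assay without inhibitor and 100% = GST in place of GST-Vif; retest series ran down from 100 µM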
# ALR inh = inhibitors of human ALR sulfhydryl oxidase, primary screen, biochemical, H2O2 detection, HRP-luminol luminescence, single point. FAD-linked sulfhydryl oxidase ALR (Homo sapiens), P55789. purified ALR, DTT oxidation. inhibition, % (test concentration not listed). 290,000 tested, 3.8% active. AID 485317, 2010;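 active = mean and each replicate at 75% or more; inconclusive = only one of the two met; inactive = neither met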;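 also: stock transfer was 7.5 nL into about 7.5 µL; 0% = neutral wells and 100% = wells with inactivated enzyme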
# Target sequence (P55789 whole entry, looked up): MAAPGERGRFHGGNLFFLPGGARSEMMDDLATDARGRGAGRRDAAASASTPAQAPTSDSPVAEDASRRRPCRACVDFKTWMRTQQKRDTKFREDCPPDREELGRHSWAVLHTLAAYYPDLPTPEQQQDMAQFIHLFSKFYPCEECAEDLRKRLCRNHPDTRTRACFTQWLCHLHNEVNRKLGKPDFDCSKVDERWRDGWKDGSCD
# LANA-H2B inh = blockers of LANA interaction with H2A/H2B – biochemical, FP readout, HTS, primary screen. Protein LANA1 (Human herpesvirus 8 type P (isolate GK18)), Q9QR71. cell-free LANA-H2A/H2B peptide, fluorescence polarization. inhibition, % (no concentration beside the values). 320,000 tested, 0.6% active. AID 2629, 2010; in the data active = inhibition mostly above about 10%, no sharp cut-off; inactive = mostly below about 6.7%;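 also: stock transfer was 7.5 nL into about 10 µL; 0% = median of vehicle wells and 100% = median of positive control wells; one replicate is shown; the record names a cut of 25% in any replicate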
# The depositor's hits bear a star; ? = inconclusive; . = no result given; & = joins results of further samples.
Structure,RanGTP-Imp inh,Calb FLC,HNF4A DNA FP,Beta2AR agonist,Vif A3G,ALR inh,LANA-H2B inh
O=C1OCC2=C1C(c1ccc(F)cc1)c1cc3c(cc1N2)OCCO3 (configuration not stated),.,.,5.4,18.1,-7.0%,.,.
CCOC(=O)c1ccc(NC(=O)CCS(=O)(=O)c2ccc(Br)s2)cc1,-2.4,25.8,0.8,-3.4,1.3%,1.4,-1.7
COc1ccc(C2=NOC(C3(S(=O)(=O)c4ccccc4)CC(O)C3)C2)cc1 (configuration not stated),-3.4,-17.1,-0.2,0.9,.,-14.0,3.0
COC(=O)C(Nc1ccccc1Cl)(c1cc(C)c(O)c(C)c1)C(F)(F)F (configuration not stated),-0.2,30.2,-0.2,4.8,2.2%,-31.6,-7.8
CCOc1ccccc1NC(=O)c1ccccc1-c1ccccc1,-0.6,21.6,-1.2,0.6,.,-0.8,-2.2
CC(C)c1nnc(NC(=O)CCC(=O)Nc2ccccc2)s1,1.0,-0.1,-4.9,-3.3,-1.5%,-14.1,2.3
O=C1c2ccccc2C2(c3ccccc3)NCCCN12 (configuration not stated),-3.8,-10.2,-1.6,-3.5,10.2%,-1.2,1.7
CC(=O)NC1(c2cccc(F)c2)CCN(CC(=O)NC(C)C)CC1,0.8,-36.7,0.5,-0.4,-2.9%,0.9,4.3
O=C(NCCCN1CCOCC1)c1sc2cc(Cl)ccc2c1Cl,.,28.5,-4.2,-6.5,0.9%,-2.2,1.1
CCOC(=O)C1Nc2ccc(Br)cc2C2C=CCC12 (configuration not stated),-1.0,10.4,-2.7,8.2,>100µM*,.,-3.8

Structure,RanGTP-Imp inh,Calb FLC,HNF4A DNA FP,Beta2AR agonist,Vif A3G,ALR inh,LANA-H2B inh
CCOC(=O)c1c(C)c(C(=O)Nc2cc(F)ccc2F)c(C)n1C,?,-10.4,-1.0,-18.4,.,-8.2,3.2
CCN(CC)C(=O)c1cccc2nc3ccccc3nc12,1.3,-2.1,-2.0,0.0,?,6.8,-0.6
O=C(O)CCC(=O)N1CCc2cc(S(=O)(=O)Nc3ccc4c(c3)OCCO4)ccc21,0.9,-4.6,-2.0,6.7,25.4%&-3.0%,41.5,-1.8
CN(CCO)c1ccc([N+](=O)[O-])cc1C(=O)O,-0.1,3.3,2.6,-1.6,5.6%,-4.4,-0.3
COc1ccc(-c2nnc(SCC(=O)/C(C#N)=C(\C)N)o2)cc1,4.2,-5.7,1.9,-5.4,3.4%,-7.0,0.2
Cc1cccc(NC(=O)CN2CCc3cc4c(cc3C2C)OCCCO4)c1 (configuration not stated),11.5,-0.9,-1.5,3.4,.,0.0,2.0
COc1ccc(NC(=O)NNS(=O)(=O)c2ccc(Br)cc2)cc1,0.8,-5.1,-3.5,0.3,.,-5.8,-0.5
CC(C)(C)OC(=O)CNC(=O)c1[nH]cnc1C(=O)Nc1ccc(Cl)cc1,2.9,42.1,-3.2,0.5,-4.3%,-0.5,-1.3
O=C(Cc1ccc([N+](=O)[O-])cc1)OCc1ccc([N+](=O)[O-])cc1,4.7,-5.1,2.4,5.4,.,-8.0,3.2
Cc1csc2cc(-c3cccc([N+](=O)[O-])c3)c(-c3cccc([N+](=O)[O-])c3)c[n+]12,1.0,-10.7,-0.6,-17.3,1.4%,-136.0,-5.6

Structure,RanGTP-Imp inh,Calb FLC,HNF4A DNA FP,Beta2AR agonist,Vif A3G,ALR inh,LANA-H2B inh
N#CC1=C(N)OC2=C(C(=O)CC(c3ccccc3)C2)C1c1ccc2c(c1)OCO2 (configuration not stated),2.0,-6.1,1.2,-0.5,12.0%,3.1,0.8
CC(NC(=O)COC(=O)c1cc(Cl)ccc1O)C1CC2CCC1C2 (configuration not stated),.,.,-0.6,-5.7,-8.4%,.,-0.3
CCc1cc2c(=O)c(-c3nc4ccccc4n3C)coc2c(CN2CCCCC2C)c1O (configuration not stated),-0.5,-7.2,-1.0,7.1,-0.9%,.,.
Nc1cc2c(cc1Br)[nH]c(=O)c1ccccc12,.,.,1.6,-1.1,0.1%,.,.
COc1ccc(C(C(=O)NC2CCCC2)N(C(=O)c2ccco2)c2cccc(C(C)=O)c2)cc1OC (configuration not stated),1.4,-7.9,2.0,9.9,21.8%,-1.9,-1.2
Cc1ccnc(NS(=O)(=O)c2cccc([N+](=O)[O-])c2)c1,-1.7,-1.0,-3.2,-0.1,4.6%,.,-2.6
CC(C)Oc1cc2ccccc2cc1CNC[C@H]1O[C@@H](n2cnc3c(N)ncnc32)[C@H](O)[C@@H]1O,.,.,-0.6,-7.2,2.2%,.,-1.5
COc1cc(NC(=O)COc2cc3oc(=O)cc(C)c3cc2Cl)cc(OC)c1OC,?,10.1,-4.5,46.1*,.,-12.7,14.6*
CCOc1ccc(CCNC(=O)c2ccc3c(=O)[nH]c4c(C(=O)NC(C)C)sc(=S)n4c3c2)cc1,-1.8,-22.1,1.7,6.2,.,-0.5,4.9
CCOC(=O)c1ccc(NC(=S)N2CCCC2)cc1,-5.0,-9.0,1.9,9.3,.,-5.6,7.7

Structure,RanGTP-Imp inh,Calb FLC,HNF4A DNA FP,Beta2AR agonist,Vif A3G,ALR inh,LANA-H2B inh
CCCc1ccc2oc(C(=O)N3CCC(C(N)=O)(N4CCCCC4)CC3)c(C)c2c1,0.4,-6.9,5.7,-6.6,.,-4.2,-3.7
CCOc1cccc(-c2nnc3sc(-c4cccs4)nn23)c1,2.1,25.3,0.2,-14.2,-6.9%,-5.7,-0.9
CN1CCCc2cc(C=O)ccc21,-0.6,-3.1,-2.0,4.1,7.0%,-28.9,-2.1
CN(CC(=O)Nc1ccccc1Br)C(=O)CCCSc1nc2ccccc2[nH]1,2.2,-2.8,0.2,-6.6,-9.2%,-1.2,-8.6
Cc1c(NC(=O)C23CC4CC(CC(Br)(C4)C2)C3)c(=O)n(-c2ccccc2)n1C,-0.4,-0.7,5.7,-6.0,.,-3.7,4.9
O=C1Nc2cc(C(F)(F)F)ccc2N2CCCCC12 (configuration not stated),1.2,-2.1,-0.3,0.4,-1.2%,.,0.8
CCOC(=O)CCCn1c(C)nc(=O)c(-c2ccccc2)c1C,0.2,-6.2,0.5,10.1,-0.9%,-1.0,0.1
CCOC(=O)c1ccc(-c2nnc(-c3ccc(Cl)cc3Cl)o2)cc1,-2.2,?,-2.1,-1.6,1.6%,.,3.8
COc1cc2c(cc1OC)CN(C(=O)c1nn(Cc3ccccc3)c(=O)c3ccccc13)CC2,.,.,-3.3,26.1,.,-14.8,-7.9
COc1ccc(-c2nc3c(C(=O)NCCN(C)C)cccc3c3ccccc23)cc1,.,.,0.0,-1.6,-6.2%,.,.

# Given field by field: four of the compounds above.
> Cc1c(NC(=O)C23CC4CC(CC(Br)(C4)C2)C3)c(=O)n(-c2ccccc2)n1C
- RanGTP-Imp inh = -0.4
- Calb FLC = -0.7
- HNF4A DNA FP = 5.7
- Beta2AR agonist = -6.0
- Vif A3G = .
- ALR inh = -3.7
- LANA-H2B inh = 4.9
> O=C1Nc2cc(C(F)(F)F)ccc2N2CCCCC12 (configuration not stated)
- RanGTP-Imp inh = 1.2
- Calb FLC = -2.1
- HNF4A DNA FP = -0.3
- Beta2AR agonist = 0.4
- Vif A3G = -1.2%
- ALR inh = .
- LANA-H2B inh = 0.8
> CCOC(=O)CCCn1c(C)nc(=O)c(-c2ccccc2)c1C
- RanGTP-Imp inh = 0.2
- Calb FLC = -6.2
- HNF4A DNA FP = 0.5
- Beta2AR agonist = 10.1
- Vif A3G = -0.9%
- ALR inh = -1.0
- LANA-H2B inh = 0.1
> CCOC(=O)c1ccc(-c2nnc(-c3ccc(Cl)cc3Cl)o2)cc1
- RanGTP-Imp inh = -2.2
- Calb FLC = ?
- HNF4A DNA FP = -2.1
- Beta2AR agonist = -1.6
- Vif A3G = 1.6%
- ALR inh = .
- LANA-H2B inh = 3.8

# Further entries
Structure,RanGTP-Imp inh,Calb FLC,HNF4A DNA FP,Beta2AR agonist,Vif A3G,ALR inh,LANA-H2B inh
Cc1ccc(NC(=O)COC(=O)Cc2c[nH]c3ccccc23)cc1F,.,.,-0.8,-0.6,-1.1%,.,.
Cc1ccc(S(C)(=O)=NC(=O)NC(=O)c2c(Cl)cccc2Cl)cc1 (configuration not stated),-2.0,-0.2,-0.2,1.1,15.6%,-8.8,3.5
COc1ccc2c(Cl)c(C(=O)NCC3CCCO3)sc2c1Cl (configuration not stated),-0.7,2.4,.,.,16.4%,-17.4,-1.5
COc1ccc(CNC(=O)CNC(C)c2ccc(F)cc2)cc1 (configuration not stated),0.7,-8.4,1.3,8.8,-1.9%,.,-0.5
O=C(/C=C/c1ccccc1)NNC(=O)c1cccnc1,2.9,-5.1,-1.8,-3.5,8.0%,.,3.8
CN(C)c1oc(-c2ccc(OCc3ccccc3)cc2)nc1C#N,3.7,25.9,-2.8,-3.6,-2.5%,-0.1,2.4
CC1(C)CC(=O)C(C(c2cccc([N+](=O)[O-])c2)C2C(=O)CC(C)(C)CC2=O)C(=O)C1,4.8,3.7,1.1,12.6,-11.9%,.,.
COc1cccc(/C=C/C(=O)N2CCN(c3n[nH]c(=O)[nH]c3=O)CC2)c1OC,-6.3,-3.2,-0.7,2.9,-9.5%,-1.6,3.0
O=Cc1[nH]c2ccccc2c1N(C(=O)CCl)c1ccccc1,0.0,-5.7,3.0,-1.8,20.6%,.,.
CC(=O)Nc1ccc(S(=O)(=O)Nc2nc3ccccc3nc2Nc2ccc(N)cc2)cc1,8.0,11.5,39.7,3.9,0.62µM*,99.8*,8.8

Structure,RanGTP-Imp inh,Calb FLC,HNF4A DNA FP,Beta2AR agonist,Vif A3G,ALR inh,LANA-H2B inh
CC1CCCCC1NC(=O)CSc1nnc(CNC(=O)c2ccccc2)n1C (configuration not stated),-1.3,-10.1,-3.0,-4.0,19.1%,-0.1,1.9
Cn1c(=O)cc(SCC(=O)N2CCN(C(=O)c3ccco3)CC2)c2ccccc21,3.7,1.6,3.0,-9.4,3.1%,0.2,-6.2
C[C@@H]1CN([C@@H](C)CO)C(=O)c2cccc(NC(=O)c3ccncc3)c2O[C@@H]1CN(C)Cc1ccc(-c2ccccc2)cc1,.,.,3.0,0.5,.,-5.6,6.7
C/C(=N\NC(=O)c1cc(-c2cccnc2)nc2ccccc12)c1ccc(O)cc1O,-2.4,?,3.0,-2.6,-8.4%,39.8,0.4
CCC(C)(C)n1nnnc1C(c1cc2ccc(C)cc2[nH]c1=O)N(Cc1cccnc1)Cc1ccco1 (configuration not stated),?,24.9,-0.1,4.1,-3.9%&-12.1%,-4.0,0.4
COCCN1C(=O)Cc2c1nc(N)c1c(N)nc(N3CCN(c4ccc(F)cc4)CC3)c(C#N)c21,-3.2,-0.4,9.4,15.0,12.8%,-6.0,2.6

# 3 entries already listed, ordered by formula weight, lowest first:
Structure,RanGTP-Imp inh,Calb FLC,HNF4A DNA FP,Beta2AR agonist,Vif A3G,ALR inh,LANA-H2B inh
CC1CCCCC1NC(=O)CSc1nnc(CNC(=O)c2ccccc2)n1C (configuration not stated),-1.3,-10.1,-3.0,-4.0,19.1%,-0.1,1.9
Cn1c(=O)cc(SCC(=O)N2CCN(C(=O)c3ccco3)CC2)c2ccccc21,3.7,1.6,3.0,-9.4,3.1%,0.2,-6.2
COCCN1C(=O)Cc2c1nc(N)c1c(N)nc(N3CCN(c4ccc(F)cc4)CC3)c(C#N)c21,-3.2,-0.4,9.4,15.0,12.8%,-6.0,2.6
